# Bioassay records deposited in PubChem by National Center for Advancing Translational Sciences (NCATS).
# 2A StopGo = FMDV 2A StopGo reporter, luciferase signal. human cells with a luciferase reporter of 2A StopGo recoding; control for the full effect not named in the record. Potency, µM (highest dose often 57.9 µM), inactives show at the highest dose signal change, negative = less light. hit rate 1.2% among 410,000. AID 1159524; active = well fitted falling curve with a large enough effect; inconclusive = small, poorly fitted or top-dose-only effect; inactive = no such curve, though single readings can be large or run the other way; tested in HEK293T cells; further: on the % scale 0 is the no-effect control and ±100 the full control effect; nearly all actives have a fitted effect of over 45% in size; luciferase light after 4 h
# Cruzain inh Det = inhibitors of Trypanosoma cruzi cruzain with detergent; AID 1478; P25779; purified cruzain, Z-FR-AMC fluorescence, 0.01% Triton; Potency, µM, for the others: max response, negative = inhibition, hits mostly inhibitors; hit rate 0.43% among 200,000; active means well fitted curve in the direction sought with a large enough effect; inconclusive means small, poorly fitted or top-dose-only effect, or another doubt; inactive means no such curve, though single readings can be large; an effect the other way counts as inactive or inconclusive;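 further: plate controls were neutral wells for no effect and buffer without enzyme for full effect; nearly all actives have a fitted effect of over 40% in size; top concentration of the series not given in the record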
# Target sequence (P25779 123-467 limits assumed): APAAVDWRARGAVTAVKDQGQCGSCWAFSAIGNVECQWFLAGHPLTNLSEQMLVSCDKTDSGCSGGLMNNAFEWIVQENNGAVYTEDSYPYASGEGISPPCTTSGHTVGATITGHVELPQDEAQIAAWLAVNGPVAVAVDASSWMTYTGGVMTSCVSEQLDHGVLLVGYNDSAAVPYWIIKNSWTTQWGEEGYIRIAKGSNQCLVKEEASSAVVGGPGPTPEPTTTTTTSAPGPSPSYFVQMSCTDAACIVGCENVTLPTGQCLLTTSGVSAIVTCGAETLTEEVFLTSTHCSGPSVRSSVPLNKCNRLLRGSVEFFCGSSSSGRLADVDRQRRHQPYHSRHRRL
#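 Enzyme 1.5 nM, Z-FR-AMC 2 uM, NaOAc 100 mM pH 5.5, DTT 5 mM, Triton X-100 0.01%; 15 min RT compound preincubation; kinetic ex360/em450, 60 s delta.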
# NS1 function inh = inhibitors of influenza NS1 protein function; S. cerevisiae slowed by influenza A NS1, growth recovery by OD600; Potency, µM (highest dose often 46.1 µM), for inactives: top-dose activity, positive = more growth; hit rate 0.4% among 270,000; AID 2326; further: actives are rising curves; nearly all actives have a fitted effect of over 50% in size
#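 Growth recovery, yeast-based: influenza A NS1 expressed in S. cerevisiae causes slow growth, and suppressors are detected by OD600. The parent strain without NS1 is used as positive control.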
# Marburg entry inh = inhibitors of Marburg virus binding or cell entry. Marburg virus pseudotyped entry inhibition, cell reporter; control for the full effect not named in the record; about a third of the inactives were read at about 46 µM. Potency, µM (doses to about 37.8 µM), for inactives: top-dose activity change, negative = inhibition, actives largely listed as inhibitors. hit rate 1.8% among 300,000; active = well fitted inhibition curve with a large enough effect; inconclusive = small, poorly fitted or top-dose-only effect, or effect the other way; inactive = flat fitted curve, though single readings scatter; tested in HEK293 cells; about a fifth of its hits are not listed in these tables; further: on the % scale 0 is the no-effect control and ±100 the full control effect; luciferase read-out
# RE007 growth inh = less growth of the S. pombe RE007 Vpr strain. S. pombe RE007 Vpr strain, BacTiter-Glo ATP luminescence, 24 h; control for the full effect not named in the record. Potency, µM (titrated, usually from 92.2 µM), without a hit: top-dose activity change, negative = less growth. hit rate 0.21% among 360,000. AID 651644; active = well fitted falling curve with a large enough effect; inconclusive = small, poorly fitted or top-dose-only effect; inactive = no such curve, though single readings can be large or run the other way;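 further: on the % scale 0 is the no-effect control and ±100 the full control effect; nearly all actives have a fitted effect of over 50% in size; the assay follows cell death caused by Vpr and the record does not say whether a fall means rescue or toxicity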
#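 Fission yeast strain RE007, carrying one chromosomally integrated HIV-1 vpr copy, was seeded at OD 0.01 in PMG+AL medium with 23 nL pinned compound. After 24 h at 30 °C and 99% humidity, viability was read by BacTiter-Glo luminescence.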
# SARS PLP yeast = blocks SARS-CoV papain-like protease in a yeast assay. S. cerevisiae expressing SARS-CoV PLpro, growth rescue; control for the full effect not named in the record. Potency, µM (top dose mostly 32.9 µM), for the others: at the highest dose activity, positive = growth rescue. hit rate 0.19% among 330,000. AID 485353; further: 0% is about no effect; nearly all actives have a fitted effect of over 55% in size; growth read by luminescence after 48 h
# Cruzain inh noDet = cruzain (T. cruzi) inhibition without detergent; P25779; purified cruzain, Z-FR-AMC fluorescence, no detergent; Potency, µM, for the others: max response, negative = inhibition, actives largely listed as inhibitors; hit rate 2.3% among 200,000; AID 1476; active means well fitted curve in the direction sought with a large enough effect; inconclusive means small, poorly fitted or top-dose-only effect, or another doubt; inactive means no such curve, though single readings can be large; an effect the other way counts as inactive or inconclusive;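 further: plate controls were enzyme without inhibitor for no effect and buffer without enzyme for full effect; nearly all actives have a fitted effect of over 40% in size; top concentration of the series not given in the record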
#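 Purified cruzain at 1.5 nM, pre-incubated 15 min with compound at room temperature in 100 mM sodium acetate pH 5.5, 5 mM DTT, 0.00005% Triton X-100. Reaction started with 2 uM Z-FR-AMC; AMC fluorescence increase over 60 s gives rate.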
# Lassa entry inh = inhibitors of Lassa virus binding or cell entry; hit rate 1.2% among 300,000; Potency, µM (top dose mostly 37.9 µM), inactives show at the highest dose activity change, negative = inhibition, most hits filed as inhibitors; Lassa virus pseudotype entry inhibition, cell reporter; control for the full effect not named in the record; active means well fitted inhibition curve with a large enough effect; inconclusive means small, poorly fitted or top-dose-only effect, or effect the other way; inactive means flat fitted curve, though single readings scatter; tested in HEK293 cells; further: on the % scale 0 is the no-effect control and ±100 the full control effect; nearly all actives have a fitted effect of over 50% in size; luciferase read-out
# * marks the source's active call; other numbers are inactive results; ? = inconclusive; . = not tested or not shown; & = joins results of further samples; [ ] = dose if it differs, or a comment. Unless noted, the call rests on the fitted dose curve; in most records, active means well fitted rising curve with a large enough effect; inconclusive means small, poorly fitted or top-dose-only effect; inactive means no such curve, though single readings can be large or run the other way. Potency means the concentration at half of the fitted maximal effect.
SMILES,2A StopGo,Cruzain inh Det,NS1 function inh,Marburg entry inh,RE007 growth inh,SARS PLP yeast,Cruzain inh noDet,Lassa entry inh
COc1cc(SC)ccc1C(=O)OCC(=O)N1CCCC1,25%,.,1%,17%[46.1 µM],1%,3%,.,-15%
CN1CCN(C(=O)CN(C)S(=O)(=O)c2ccc(F)cc2)CC1,14%,.,7%,6%[46.1 µM],-19%,-5%,.,2%
COc1ccc(-c2ncncc2-c2ccc(Cl)cc2)c(O)c1,-21%,.,-7%,?,-11%,-3%,.,0%[46.1 µM]
Cc1ccc(NC(=O)Cc2nnc(SCC(=O)Nc3ccccc3)n2C)cc1,22%,-1.5%,10%,24%,8%,25%,-4%,6%
Cc1nnc(NC(=O)CCC(=O)N2CCC(C)CC2)s1,.,1.2%,-6%,3%,-1%,4%,-5%,0%
N#C/C(=C/c1ccc(OCc2ccc(C(=O)O)cc2)c(Br)c1)c1cccc(F)c1,-12%,.,.,?,5%,-2%,.,?
COc1cccc(-c2cc(C(=O)N3CCN(C(=O)c4ccco4)CC3)on2)c1,-2%,.,-19%,-14%[46.1 µM],2%,-3%,.,28%[46.1 µM]
COc1ccc(/C=C2\Sc3ccc(C(=O)NCCN4CCCCCC4)cc3N(C)C2=O)cc1,-10%,.,8%,.,-4%,1%,.,.
COc1ccc(NC(=O)Nc2ccc(N(C)C)cc2)cc1,41%[activator],1.6%,-10%,13%,-14%,-4%,-12%,-14%
O=C1CN(C(=O)c2ccc(Br)o2)C(c2ccccc2)c2cc(F)ccc2N1 (stereo not given),0%,-4.3%,15%,.,1%,0%,-5%,.
COc1ccc(Cl)cc1C(=O)NNC(=O)c1nc2nc(C)cc(C)n2n1,-13%,.,1%,-3%[46.1 µM],1%,-1%,.,1%[46.1 µM]
CCOc1ccccc1CN1CCCC(C(=O)c2ccc(OC)c(OC)c2)C1 (stereo not given),0%,.,5%,.,-13%,0%,.,.
O=C(O)C1CCC(=O)N1C1CCCC1 (stereo not given),-24%,4.0%,3%,52%,21%,-2%,6%,3%
CCCOP(=O)(c1ccc(N(C)C)cc1)C(O)c1cccnc1 (stereo not given),1%,1.3%,5%,2%,11%,-3%,-7%,15%
Cc1ccc(NC(=O)COc2coc(CN3CCN(Cc4ccccc4)CC3)cc2=O)cc1,?,.,.,-32%,4%,-4%,.,-23%
Cc1ccc(CNC(=O)CCC(=O)Nc2nnc(C(C)C)s2)cc1,38%[activator],.,2%,.,10%,11%,.,.
Cc1onc(-c2c(F)cccc2Cl)c1C(=O)N1CCN(c2ncc(Br)cn2)CC1,28µM*,.,-5%,?,23%,-3%,.,?
O=C(N/N=C1/CC2C=CCC12)c1cccs1 (stereo not given),10%,.,-10%,16%[46.1 µM],18%,-10%,.,?
CCOC(=O)C1=C(CSCc2ccccc2)NC(=O)NC1c1cc(C)ccc1C (stereo not given),?,-5.4%,14%,?,8%,-2%,1%,-25%[14.3 µM]
Cc1ccc(NC(=S)N=Nc2c(O)n(C)c3ccc(S(=O)(=O)N4CCOCC4)cc23)cc1C,-22%,-5.4%,?,-19%,5%,15%,8%,-10%
[N-]=[N+]=N[C@@H](CCN1CC[C@H](O)CCC1=O)c1ccccc1,-10%,.,38%,.,-9%,13%,.,.
CCN=C1SC(CC(=O)Nc2sc3c(c2C#N)CCCC3)C(=O)N1CC (stereo not given),-15%,2.5%,0%,9%,-9%,-7%,?,-23%
Cc1ccccc1C(=O)N1CCC(C(=O)Nc2ccc(S(=O)(=O)N3CCCCC3)cc2)CC1,?,.,-2%,-30%,-7%,3%,.,?
NC(=O)CSc1nnc(-c2ccc(S(=O)(=O)N3CCOCC3)cc2)n1CC1CCCO1 (stereo not given),-1%,0.3%,-2%,14%&14%,-5%,9%,2%,-7%
CCOc1ccc(-n2c(SCC(N)=O)nnc2-c2ccco2)cc1,-11%,.,11%,-6%[46.1 µM],-11%,0%,.,15%[46.1 µM]
# Next records follow.
SMILES,2A StopGo,Cruzain inh Det,NS1 function inh,Marburg entry inh,RE007 growth inh,SARS PLP yeast,Cruzain inh noDet,Lassa entry inh
COCCOC(=O)C1=C(C)Nc2ncnn2C1c1ccc(F)cc1 (stereo not given),-20%,4.7%,-1%,-1%,1%,8%,3%,2%
Cc1ccccc1NC1=C(Cl)C(=O)OC1OC(=O)c1ccco1 (stereo not given),.,-3.4%,18%,4%,11%,16%,0%,9%
CC1SC(c2ccccc2Cl)NC1=O (stereo not given),0%,4.8%,5%,5%,8%,-6%,11%,6%
COC(=O)CC(NC(=S)NC(=O)c1ccccc1)c1ccc(Br)cc1 (stereo not given),-6%,.,16%,.,-1%,0%,.,.
Clc1ccccc1CSc1nncn1NC/C=C/c1ccccc1,14%,-10%,-33%,1%,.,2%,-8%,4%
CN(Cc1ccccc1)C(=O)c1ccc(NC(=O)Cc2cccc(NC(=O)C3CCN(C(=O)C4CCCC4)CC3)c2)cc1,20%,.,.,4%,-3%,-4%,.,.
O=C(Nc1ccccc1Cl)N(Cc1nc2ccccc2c(=O)[nH]1)Cc1cccs1,1%,-4.3%,9%,9%,5%,?,-10%,-1%
CCOc1ccc(NC(=O)CN(C)C(=O)c2cc(C)oc2C)cc1OCC,-10%,.,.,-4%,8%,-2%,.,-3%
CN(Cc1ccccc1Cl)C(=O)c1cc2ccccc2o1,37%[activator],.,-34%,8%[46.1 µM],-11%,1%,.,?
Cc1nnc(NC(=O)c2csc3c2CCC(C)C3)s1 (stereo not given),37%[activator],.,-1%,.,-2%,0%,.,.
O=C(NCc1cccc(F)c1)c1ccc(-n2cnc3cccnc32)cc1,-1%,-2.2%,.,.,.,.,22%,7%[46.1 µM]
NC(=O)NC(=O)CC1S/C(=N/N=C/c2ccccc2)NC1=O (stereo not given),-3%,.,13%,0%[46.1 µM],-10%,0%,.,10%[46.1 µM]
COc1ccc(OC)c(NC(=O)CSc2ncccn2)c1,0%,0.2%,2%,13%,-7%,3%,-3%,?
O=C(Nc1sc2c(c1C(=O)NCC1CCCO1)CCCC2)c1cccs1 (stereo not given),.,-9.0%,1%,?,-19%,-7%,?,-8%
Cc1ccc(-n2ncc(C(=O)NCCCN3CCc4ccccc4C3)c2C2CCN(C(=O)OC(C)(C)C)CC2)cc1C,-13%,-2.3%,.,.,.,.,-6%,?
Cc1ccc2oc3c(c(=O)c2c1)C(c1cccs1)N(CCCN(C)C)C3=O (stereo not given),-1%,1.1%,?,1%,9%,-8%,-19%,.
CCN(CC)CCN1C(=O)C(=O)/C(=C(/O)c2ccncc2)C1c1ccccc1 (stereo not given),-8%,-2.5%,1%,1%[46.1 µM],-3%,0%,-16%,5%
O=C(CCSc1ccccn1)c1ccccc1,?,.,.,17%[46.1 µM],25µM*,10%,.,5%[46.1 µM]
CCCNC(=O)c1ccc(OC)cc1OC,15%,5.7%,-13%,0%,-10%,1%,2%,7%
CC(=O)Nc1ccc(NC(=O)c2sc(-c3ccccc3)nc2C)cc1,-14%,.,-1%,?,5%,0%,.,?
O=C(O)CNc1nc(-c2ccccc2)nc2ccccc12,-8%,4.1%,1%,-8%,-9%,0%,-1%,11%
Cc1oc(-c2ccccc2Cl)nc1Cn1cccc1C1=NC(c2ccccc2)CO1 (stereo not given),?,-1.8%,0%,?,-1%,-3%,-6%,7.3µM*
COC(=O)CC(=O)N1CCN(c2ccc(Cl)c(Cl)c2)CC1,-6%,.,-4%,-39%[46.1 µM],-13%,0%,.,16%[46.1 µM]
Cn1cc(C(=O)NCN2CCCCC2)c2ccccc21,-11%,-1.4%,-2%,-2%,0%,2%,7%,25%
CS(=O)(=O)c1ccc(Cl)c(NC(=O)COC(=O)CNC(=O)c2sc3ccccc3c2Cl)c1,-11%,.,.,6%[46.1 µM],0%,1%,.,3%
# Other results.
SMILES,2A StopGo,Cruzain inh Det,NS1 function inh,Marburg entry inh,RE007 growth inh,SARS PLP yeast,Cruzain inh noDet,Lassa entry inh
COc1ccc(/C=C\C(=O)NC2CC(=O)N(c3ccccc3)C2)cc1OC (stereo not given),0%,-6.0%,.,.,.,.,-14%,9%[46.1 µM]
CCOCC(=O)Nc1ccc(S(=O)(=O)N2CCC(c3nc4ccccc4[nH]3)CC2)cc1,-16%,.,.,?,5%,-1%,.,-5%
CCOC(=O)N/N=C/C(Cl)=C/c1ccccc1,33%[activator],.,.,3%[46.1 µM],-19%,0%,.,-5%
Oc1ccc(Cl)cc1CNc1cccc2cccnc12,26%,.,-118%,.,-22%,-13%,.,.
COc1cccc(Nc2ncccc2C(=O)O)c1,.,0.7%,-1%,14%,-5%,1%,0%,13%
CCOc1ccccc1NC(=O)c1cccc(S(=O)(=O)N(Cc2ccccc2)c2ccccc2OC)c1,-4%,-1.0%,1%,?,-18%,16%,?,1%
CCOC(=O)c1cn(Cc2cccc(Cl)c2)nn1,3%,0.1%,-3%,?,27%,-3%,-4%,?
COc1ccc(C(=O)OCCOc2cccc(Cl)c2)cc1S(=O)(=O)N1CCOCC1,-21%,.,-2%,?,-19%,2%,.,-19%
CCC(C)c1ccc(NC(=O)c2cnn3c(C(F)F)cc(C)nc23)cc1 (stereo not given),-16%,.,0%,?,-11%,0%,.,10%
CNC(=O)c1sc(-c2cccs2)nc1C,55%[activator],.,.,7%[46.1 µM],9%,1%,.,4%
Cc1nc(C)c(C(=O)N2CCCC(C(=O)c3ccc(Cl)cc3C)C2)s1 (stereo not given),-13%,.,-11%,.,-5%,-5%,.,.
Cc1cc(C)c(S(=O)(=O)NCC(c2ccc3c(c2)OCO3)N2CCOCC2)c(C)c1 (stereo not given),29%,.,.,?,9%,-6%,.,-17%
CCC1CCc2c(sc(NC(=O)C3c4ccccc4Oc4ccccc43)c2C(=O)OC)C1 (stereo not given),-10%,0.6%,.,?,.,.,4µM*,-10%[46.1 µM]
O=C(COC(=O)CCC1CCCC1)Nc1cccc(S(=O)(=O)N2CCOCC2)c1,-9%,.,.,4%,-5%,-1%,.,23%
FC(F)Oc1ccc(-c2csc(=Nc3cccnc3)n2CC2CCCO2)cc1 (stereo not given),8.9µM*,-3.1%,11%,?,11%,-4%,-1%,?
